# Screens deposited in PubChem BioAssay by National Center for Advancing Translational Sciences (NCATS).
# SARS PLP yeast: SARS-CoV PLP inhibition in yeast; S. cerevisiae expressing SARS-CoV PLpro, growth rescue; control for the full effect not named in the record; Potency, µM (series often up to 32.9 µM), for inactives: at the highest dose activity, positive = growth rescue; 0.19% of 330,000 active; active means well fitted rising curve with a large enough effect; inconclusive means small, poorly fitted or top-dose-only effect; inactive means no such curve, though single readings can be large or run the other way; also: 0% is about no effect; nearly all actives have a fitted effect of over 55% in size; growth read by luminescence after 48 h
# Cruzain Triton: inhibitors of Trypanosoma cruzi cruzain with detergent; 0.43% of 200,000 active; Potency, µM, for the others: max response, negative = inhibition, actives largely listed as inhibitors; P25779; purified cruzain, Z-FR-AMC fluorescence, 0.01% Triton;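 also: plate controls were neutral wells for no effect and buffer without enzyme for full effect; nearly all actives have a fitted effect of over 40% in size; top concentration of the series not given in the record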
# Target sequence (P25779 123-467 limits assumed): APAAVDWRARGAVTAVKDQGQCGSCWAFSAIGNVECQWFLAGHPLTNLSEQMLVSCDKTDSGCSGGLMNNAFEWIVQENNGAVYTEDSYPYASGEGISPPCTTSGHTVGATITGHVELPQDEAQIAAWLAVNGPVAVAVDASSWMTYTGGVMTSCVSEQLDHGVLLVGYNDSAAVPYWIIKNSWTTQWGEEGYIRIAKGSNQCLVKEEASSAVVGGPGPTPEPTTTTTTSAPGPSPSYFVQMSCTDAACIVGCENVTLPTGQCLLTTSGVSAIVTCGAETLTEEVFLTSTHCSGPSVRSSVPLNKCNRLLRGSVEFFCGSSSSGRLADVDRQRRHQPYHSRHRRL
#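 Cysteine protease activity tested under reducing, mildly acidic conditions (100 mM sodium acetate pH 5.5, 5 mM DTT) plus 0.01% Triton X-100. Cruzain 1.5 nM; substrate Z-FR-AMC 2 uM; 15 min compound preincubation at room temperature.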
# Cruzain inh noDet: cruzain (T. cruzi) inhibition without detergent; P25779; purified cruzain, Z-FR-AMC fluorescence, no detergent; Potency, µM, for the others: max response, negative = inhibition, actives largely listed as inhibitors; 2.3% of 200,000 active;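 also: plate controls were enzyme without inhibitor for no effect and buffer without enzyme for full effect; nearly all actives have a fitted effect of over 40% in size; top concentration of the series not given in the record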
#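 Detergent-free condition (0.00005% Triton X-100) in acetate buffer pH 5.5 with DTT. 1.5 nM enzyme and compound were pre-mixed 15 min, then 2 uM Z-FR-AMC substrate added; reaction progress from fluorescence change between first and third reads (60 s).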
# Lassa entry inh: Lassa virus entry inhibition | Lassa virus pseudotype entry inhibition, cell reporter; control for the full effect not named in the record | Potency, µM (series often up to 37.9 µM), for inactives: at the top dose activity change, negative = inhibition, usual class: inhibitors | 1.2% of 300,000 active | AID 540256; active means well fitted inhibition curve with a large enough effect; inconclusive means small, poorly fitted or top-dose-only effect, or effect the other way; inactive means flat fitted curve, though single readings scatter; tested in HEK293 cells; also: % is scaled to controls: 0 for no effect and ±100 for the full control effect; nearly all actives have a fitted effect of over 50% in size; luciferase read-out
# NS1 function inh: influenza NS1 inhibition. S. cerevisiae slowed by influenza A NS1, growth recovery by OD600. 0.4% of 270,000 active. Potency, µM (doses to about 46.1 µM), without a hit: at the highest dose activity, positive = more growth; active means well fitted rising curve with a large enough effect; inconclusive means small, poorly fitted or top-dose-only effect; inactive means no such curve, though single readings can be large or run the other way; also: nearly all actives have a fitted effect of over 50% in size
#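 S. cerevisiae expressing influenza A NS1, grown in glucose, washed, then diluted 1:100 into pH 6.0 -URA galactose medium with 23 nl compound. Growth recovery read as OD600; NS1-free strain serves as control.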
# 2A StopGo: FMDV 2A StopGo reporter, luciferase signal | human cells with a luciferase reporter of 2A StopGo recoding; control for the full effect not named in the record | Potency, µM (series often up to 57.9 µM), inactives show at the top dose signal change, negative = less light | 1.2% of 410,000 active; active = well fitted falling curve with a large enough effect; inconclusive = small, poorly fitted or top-dose-only effect; inactive = no such curve, though single readings can be large or run the other way; tested in HEK293T cells; also: % is scaled to controls: 0 for no effect and ±100 for the full control effect; nearly all actives have a fitted effect of over 45% in size; luciferase light after 4 h
# MARV entry inh: Marburg virus entry inhibition. Marburg virus pseudotyped entry inhibition, cell reporter; control for the full effect not named in the record; about a third of the inactives were read at about 46 µM. 1.8% of 300,000 active. Potency, µM (top dose mostly 37.8 µM), for the others: at the top dose activity change, negative = inhibition, hits mostly inhibitors; active = well fitted inhibition curve with a large enough effect; inconclusive = small, poorly fitted or top-dose-only effect, or effect the other way; inactive = flat fitted curve, though single readings scatter; tested in HEK293 cells; about a fifth of its hits are not listed in these tables; also: % is scaled to controls: 0 for no effect and ±100 for the full control effect; luciferase read-out
# RE007 growth inh: less growth of the S. pombe RE007 Vpr strain | 0.21% of 360,000 active | Potency, µM (top dose mostly 92.2 µM), inactives show top-dose activity change, negative = less growth | S. pombe RE007 Vpr strain, BacTiter-Glo ATP luminescence, 24 h; control for the full effect not named in the record; active = well fitted falling curve with a large enough effect; inconclusive = small, poorly fitted or top-dose-only effect; inactive = no such curve, though single readings can be large or run the other way;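 also: % is scaled to controls: 0 for no effect and ±100 for the full control effect; nearly all actives have a fitted effect of over 50% in size; the assay follows cell death caused by Vpr and the record does not say whether a fall means rescue or toxicity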
#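 Fission yeast RE007 carrying one integrated HIV-1 vpr copy, seeded at OD 0.01 in PMG+AL medium with 23 nL pinned compound. Grown 24 h at 30 degrees; viability read by BacTiter-Glo luminescence after 5 min.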
# Starred values were filed as active, the others as inactive; ? = inconclusive; . = no result given; & = joins results of further samples; [ ] = dose if it differs, or a comment. Unless noted, calls follow the shape of the dose curve; as a rule, active = well fitted curve in the direction sought with a large enough effect; inconclusive = small, poorly fitted or top-dose-only effect, or another doubt; inactive = no such curve, though single readings can be large; an effect the other way counts as inactive or inconclusive. Potency is read from the fitted curve at half-maximal effect.
SMILES,SARS PLP yeast,Cruzain Triton,Cruzain inh noDet,Lassa entry inh,NS1 function inh,2A StopGo,MARV entry inh,RE007 growth inh
O=C(CSc1nnc(-c2cccnc2)n1Cc1ccco1)c1ccccc1,0%,0.6%,1%,3%,0%,-4%,20%,1%
COc1ccc(CC(=O)Nc2ccc(F)c(S(=O)(=O)N3CCOCC3)c2)cc1,.,.,.,4%,.,-6%,0%[46.1 µM],2%
Cc1nc(SCC(=O)c2cccs2)c2oc3ccccc3c2n1,2%,-4.8%,?,?,2%,30%,16%,8%
O=C(CCc1nnc(Cc2cccc(C(F)(F)F)c2)o1)NCC(F)(F)F,1%,.,.,27%,3%,0%,4%[46.1 µM],-2%
COc1ccc(COC(=O)c2ccc(C)c(S(=O)(=O)N3CCOCC3)c2)cc1F,2%,.,.,-13%,.,-20%,0%,-5%
CCO[C@H]1OC(C(N)=O)=C[C@@H](C)[C@@H]1CCCO,0%,.,.,.,3%,-12%,.,1%
O=C(c1ccc(CS(=O)Cc2ccccc2Cl)o1)N1CCN(c2ccccn2)CC1 (stereo unspecified),-2%,.,.,?,-4%,-17%,-25%[46.1 µM],-13%
OCCN(Cc1ccccc1)Cc1nc(CC2CC2)no1,-1%,.,.,1%[46.1 µM],-6%,-12%,-2%[46.1 µM],-7%
CC12CCC(C(=Nc3ccc(N=C4C(=O)C5(C)CCC4C5(C)C)cc3)C1=O)C2(C)C,0%,.,.,.,0%,1%,.,5%
COc1cc(C(=O)Nc2nc3nc(-c4ccccc4)cc(=O)n3[nH]2)cc(OC)c1OC,.,-3.1%,-6%,-4%[46.1 µM],.,-5%,-7%[46.1 µM],.
CCOc1ccc(CCNC(=O)c2cc3c(-c4ccccc4F)nn(C)c3s2)cc1,.,-2.0%,9%,3%[46.1 µM],.,?,?,.
CCCn1c(N)c(C(=O)CSc2nc(C)nc3sc(C)c(C)c23)c(=O)[nH]c1=O,-6%,.,.,-3%,.,-13%,-6%,2%
O=[N+]([O-])c1ccccc1S(=O)(=O)Nc1ccc(S(=O)(=O)N2CCOCC2)cc1,-3%,.,.,6%[46.1 µM],-5%,3%,-12%[46.1 µM],6%
CC1=C(C(=O)OC2CCCCCCC2)C(c2ccc(O)cc2)NC(=O)N1 (stereo unspecified),2%,-6.8%,9%,2.6µM*,4%,.,0%,16%
O=C(CSc1ccc(-c2cccnc2)nn1)Nc1ccc(Br)cc1,-1%,.,.,?,2%,?,-24%,4%
CC(C)Cn1nc(NC(=O)c2cccs2)c2cc3ccccc3nc21,0%,.,.,.,-2%,-12%,.,-19%
Cc1ccccc1OCC(=O)Nc1cccc(Cl)c1C,2%,.,.,3%,-7%,17%,-25%,-12%
CCN(CC)Cc1cc(C(=O)O)c(C)o1,-2%,.,.,17%[46.1 µM],2%,6%,2%[46.1 µM],10%
Cc1ccc(OCCn2cc(C(=O)O)c3ccccc32)cc1,-3%,.,.,14%[46.1 µM],.,-5%,-7%[46.1 µM],3%
Cc1ccc(C(=O)OCc2cc(=O)n3nc(-c4cccs4)sc3n2)cc1,.,-2.0%,-10%,3%[46.1 µM],.,-18%,.,.
O=C(Cn1c(CCCO)nc2ccccc21)Nc1ccccc1-c1ccccc1,-1%,.,.,-11%[46.1 µM],5%,-14%,-13%[46.1 µM],4%
CN(C)c1ccc(/C=C2\SC(=O)N(CC(O)Cn3c4ccccc4c4ccccc43)C2=O)cc1 (stereo unspecified),-22%,-3.8%,5µM*,5%,4%,-3%,?,5%
COC(=O)c1c(C(C)=O)cnc2ccc(Br)cc12,-3%,0.8%,9%,4%,0%,-10%,0%,3%
COc1cc(CNc2ccc3[nH]c(=O)[nH]c3c2)ccc1OCc1cccc(C)c1,3%,.,.,?,6%,-16%,-20%,-18%
COc1ccc2[nH]c3c(=O)n(Cc4ccc(C(=O)N5CCCCCC5)cc4)c(=S)[nH]c3c2c1,-1%,.,.,-26%,4%,-3%,-7%,8%
O=C(Nc1nccs1)c1cc(Cl)nc2ccccc12,-1%,.,.,-17%,4%,?,?,1%
COc1cc(/C=C(\C#N)C(=O)Nc2cc(C(F)(F)F)ccc2Cl)ccc1OCC(=O)Nc1cccc(C(F)(F)F)c1,12%,-2.3%,6%,15%,1%,-25%,-28%,1%
COc1ccc(C2C(C(N)=O)=C(C)Nc3ncnn32)cc1 (stereo unspecified),8%,2.3%,4%,16%,4%,-12%,?,-5%
O=C(CN(Cc1ccco1)C(=O)CNS(=O)(=O)c1ccc(Cl)cc1)NC1CCCCC1,-5%,-0.1%,0%,-12%,-1%,24%,?,4%
CNC(=S)N(Cc1ccc(OC)cc1)Cc1cc2ccc(C)cc2[nH]c1=O,-1%,.,.,-26%,0%,?,?,1%
COc1cccc(-n2cc(CNCc3cn(C)nc3-c3ccccc3F)cn2)c1,2%,.,.,-1%[46.1 µM],1%,-21%,?,-14%
COc1ccc(CNC(=O)CCNC(=O)N2CCn3c2nc2ccccc23)cc1,-3%,.,.,1%[46.1 µM],3%,0%,10%[46.1 µM],1%
COc1ccc(S(=O)(=O)N2CCOC2CNC(=O)C(=O)NCCN(C)C)cc1 (stereo unspecified),18%,.,.,2%[46.1 µM],-17%,5%,-6%[46.1 µM],10%
COc1ccc(N2CCN(c3oc(Cc4ccccc4)nc3C#N)CC2)cc1,-7%,-0.8%,3%,5.2µM*,-4%,?,?,0%
Cc1ccc(O)c(NC(=O)C2=CC(c3ccco3)=NS(=O)(=O)N2C)c1,0%,-11%,-4%,-22%[46.1 µM],-4%,-16%&-14%,-20%[46.1 µM],4%
c1ccc(C(c2nnnn2C2CCCC2)N2CCN(c3nc4ccccc4s3)CC2)cc1 (stereo unspecified),-28%,-2.6%,-14%,?,-2%,2%,?,6%

# Some of these compounds in order of count of non-hydrogen atoms, descending:
SMILES,SARS PLP yeast,Cruzain Triton,Cruzain inh noDet,Lassa entry inh,NS1 function inh,2A StopGo,MARV entry inh,RE007 growth inh
COc1cc(/C=C(\C#N)C(=O)Nc2cc(C(F)(F)F)ccc2Cl)ccc1OCC(=O)Nc1cccc(C(F)(F)F)c1,12%,-2.3%,6%,15%,1%,-25%,-28%,1%
COc1ccc(COC(=O)c2ccc(C)c(S(=O)(=O)N3CCOCC3)c2)cc1F,2%,.,.,-13%,.,-20%,0%,-5%
COc1ccc(N2CCN(c3oc(Cc4ccccc4)nc3C#N)CC2)cc1,-7%,-0.8%,3%,5.2µM*,-4%,?,?,0%
CC1=C(C(=O)OC2CCCCCCC2)C(c2ccc(O)cc2)NC(=O)N1 (stereo unspecified),2%,-6.8%,9%,2.6µM*,4%,.,0%,16%
Cc1ccccc1OCC(=O)Nc1cccc(Cl)c1C,2%,.,.,3%,-7%,17%,-25%,-12%

# Other compounds follow:
SMILES,SARS PLP yeast,Cruzain Triton,Cruzain inh noDet,Lassa entry inh,NS1 function inh,2A StopGo,MARV entry inh,RE007 growth inh
CCC1C/C(=C\c2cccnc2)C(=O)/C(=C/c2cccnc2)C1 (stereo unspecified),-80%,-3.5%,-2%,4.5µM*,-63%,3.5µM*,5.8µM*,?
Clc1ccc(OCc2nnc3n2N=C(c2ccc4c(c2)OCCO4)CS3)c(Cl)c1,-2%,6.7%,-24%,?,-23%,-16%,?,-9%[3.69 µM]
COC(=O)c1cccc(NC(=S)Nc2cc(Cl)ccc2OC)c1,-1%,.,.,0%,2%,7%,17%[46.1 µM],-6%
Cc1ccc(C)c(S(=O)(=O)Nc2ccc(C(=O)NCC(c3ccco3)N(C)C)cc2)c1 (stereo unspecified),6%,.,.,9%[46.1 µM],.,55%[activator],0%,2%
COc1ccccc1CNC(=O)c1cc(C)nn1-c1ccccc1,1%,.,.,.,2%,0%,.,0%
O=Cc1cc(N=Nc2ccc(S(=O)(=O)O)cc2)ccc1O,.,.,.,3%,.,-4%,-2%,8%
Oc1ccc(/C=N/N=C/c2ccc(O)cc2)cc1,0%,.,.,19%[46.1 µM],-1%,12%,?,4%
CC(=O)NC(Cc1cc(C)ccc1C)C(=O)N1CCN(C(=O)c2ccc(Br)cc2)CC1 (stereo unspecified),0%,.,.,-18%,6%,-4%,3%[46.1 µM],2%
O=C1NC(=O)C(c2ccc(Cl)cc2)N1 (stereo unspecified),4%,.,.,.,4%,-7%,.,3%
COc1cccc(-c2csc(N3CCN(C(=S)Nc4cccc(C)c4)CC3)n2)c1,-1%,.,.,.,?,-22%,.,5%
COC(=O)C1=C(C)NC(=O)C1(NC(=O)c1ccccc1C)C(F)(F)F (stereo unspecified),.,-0.4%,-6%,9%[46.1 µM],.,-5%,9%[46.1 µM],.
COC(=O)Cc1ccc(NC(=S)NCCC(C)C)cc1,2%,-3.5%,-7%,-10%,-3%,39%[activator],-11%[46.1 µM],5%
Cc1cccc(NS(=O)(=O)c2cc(C(=O)NCCC3=CCCCC3)ccc2Cl)c1,-4%,-6.1%,3%,?,?,-46%,-28%,7%
CCC(C)C(Nc1ccc(C(=O)OC)cc1[N+](=O)[O-])C(=O)OC (stereo unspecified),7%,-4.9%,2%,-2%,-2%,-21%,3%,5%
CCN(CC)CCN(C)C(=O)c1ccc(OC2CCN(C(=O)C3CC3)CC2)cc1,0%,.,.,-7%[46.1 µM],1%,-3%,-5%[46.1 µM],-13%
Cc1cccc(C(=O)NNc2ncnc3c2cnn3-c2ccc(C)cc2C)c1,.,1.4%,-8%,9%[46.1 µM],.,-10%,.,.
COc1cccc(NC(=O)CN2C(=O)NC(Cc3c[nH]c4ccccc34)C2=O)c1 (stereo unspecified),1%,.,.,8%[46.1 µM],.,-3%,-6%[46.1 µM],5%
COc1ccc(C2c3cc(OC)c(OC)cc3CC(=O)N2c2ccc(C)c(F)c2)cc1 (stereo unspecified),.,-9.2%,?,?,.,-23%,-20%[46.1 µM],.
OC(CN1CCOCC1)CN1CCOCC1,-6%,1.8%,-1%,3%,3%,-4%,0%,-12%
CC(=O)c1cc2c(cc1NC(=O)C1CC1)OCO2,?,-4.2%,-8%,0%,2%,-9%,0%,-24%

# No enrichment for hits; overall some 4.7% were active at least once.
